RN4220 kill: growth inhibition of S. aureus RN4220, primary screen, OD600; 16 h; inhibition, % (test concentration not listed); hit rate 0.33% among 330,000; AID 1259311, 2017;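 active means z-score of -3 or lower and OD600 up to 0.18 on both plates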;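 further: plate controls were untreated cells for no effect and reference antibiotic for full effect; stock transfer was 100 nL into about 80 µL; one replicate is shown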
Mtb hypoxia inh: PubChem AID 1159583. M. tuberculosis hypoxia-regulated fluorescent reporter, fluorescence. hit rate 0.1% among 300,000. fluorescence inhibition, % (test concentration not listed);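 active means 35 to 45% if threefold the growth effect, above 45% if 1.5-fold the growth effect; inactive means the rest, general growth blockers included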;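 further: wells of about 50 µL received 100 nL stock; 0% = vehicle wells and 100% = reference inhibitor wells; whole bacteria with a GFP reporter of the hypoxia response; strong numbers were not always called active; many hits fall short of the cut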
PrP UTR inh: inhibition of PrP 5' UTR reporter expression; hit rate 0.35% among 340,000; cell-based PrP 5' UTR mRNA reporter, plate reader; inhibition, % (test concentration not listed);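 active means every replicate at 50% or more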;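 further: 0 = median of the neutral control wells; tested in H4 reporter cells; numbers are from one replicate; inactives centre near -14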
ugtP null kill: growth inhibition of ugtP-null S. aureus, primary screen, RN4220 ugtP deletion, OD600; AID 1259309, 2017; 16 h; some inactives read as strong as hits; growth inhibition, % (no concentration beside the values); hit rate 0.54% among 330,000;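 active means z-score under -3 and OD600 up to 0.15 on both plates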;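 further: plate controls were untreated wells for no effect and antibiotic for full effect; wells of about 80 µL received 100 nL stock; the first replicate is given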
BJeLR lethal: MLPCN primary cell-based screen for lethality selective to Ras in HRASV12 cells | inhibition, % (concentration not given with the values) | AID 1554, 2009 | BJeLR (HRASV12) viability, CellTiter-Glo ATP luminescence, 48 h; reference of the scale not given here | hit rate 0.17% among 300,000;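 active means replicate mean above 50%; inconclusive means above 50% but judged a plate artefact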;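 further: 50 nL library stock added to about 25 µL; numbers are from one replicate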
Autofluor counter: counter-screen for toxin protease inhibitors: compound fluorescence. compound autofluorescence counterscreen, microsphere flow cytometry; hits give high values. fluorescence intensity (concentration not given with the values). hit rate 3.1% among 360,000;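 active means at least 3 SD above the mean of all compounds, about 16000 in these data; inconclusive means too few beads counted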;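 further: 100 nL of 1 mM stock went into each well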
Mtb hypoxia inh growth: recorded beside Mtb hypoxia inh, whose call it bears; growth inhibition, %; measured here: M. tuberculosis growth (absorbance);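 0% = vehicle and 100% = reference antibiotic; read after six days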
* marks the source's active call; other numbers are inactive results; ? = inconclusive; / = not tested or not shown.

SMILES	RN4220 kill	Mtb hypoxia inh	Mtb hypoxia inh growth	PrP UTR inh	ugtP null kill	BJeLR lethal	Autofluor counter
NC(=O)c1c(NC(=O)CSc2nnc(-c3ccco3)n2-c2ccccc2)sc2c1CCC2	-0.1	5	1	-7	-8	5	3205
CN1CCN(S(=O)(=O)c2ccc(NC(=O)c3csc4ccccc34)cc2)CC1	6.7	2	7	8	-11	-22	16528*
Cc1ccc(Nc2ccc(C(=O)O)cc2N)cc1	-2.6	7	1	/	10	-9	/
CCc1noc(C)c1C(=O)Nc1cc(S(=O)(=O)N(CC)CC)ccc1N1CCOCC1	3.1	-3	-4	-17	-3	5	6998
COC(=O)/C=c1/s/c(=C(\C#N)C(=O)NCc2ccco2)n(-c2ccccc2)c1=O	/	/	/	-9	/	-6	3607
COc1ccc(CCNC(=O)CNS(=O)(=O)c2ccc(N(C)C)c([N+](=O)[O-])c2)cc1OC	5.3	-6	13	/	0	-6	3037
CCOc1cc(-c2nc3c(C)cccn3c2NCC2CCCO2)ccc1O (centres undefined)	0.2	1	4	-20	2	1	4718
COc1ccc2ccccc2c1CN1CCN(Cc2ccccc2)CC1	5.7	11	11	-14	9	7	5884
CC(=O)Nc1ccccc1C(=O)N1CCN(Cc2ccc3c(c2)OCO3)CC1	7.1	16	10	-13	4	4	3684
COCCN(CC(=O)Nc1cccc(C)c1C)C(=O)c1oc2c(Cl)cccc2c1C	2.7	-4	1	-17	1	/	3061
O=[N+]([O-])c1ccc(NN=Cc2ccco2)nc1	3.3	10	8	-70	-4	/	4116
O=C(CN1C(=O)NC2(CCCCC2)C1=O)Nc1nc2c(F)cc(F)cc2s1	1.3	3	0	-20	3	4	6397

Just RN4220 kill, ugtP null kill and Autofluor counter (seven entries from above):
SMILES,RN4220 kill,ugtP null kill,Autofluor counter
CN1CCN(S(=O)(=O)c2ccc(NC(=O)c3csc4ccccc34)cc2)CC1,6.7,-11,16528*
Cc1ccc(Nc2ccc(C(=O)O)cc2N)cc1,-2.6,10,/
CCc1noc(C)c1C(=O)Nc1cc(S(=O)(=O)N(CC)CC)ccc1N1CCOCC1,3.1,-3,6998
COC(=O)/C=c1/s/c(=C(\C#N)C(=O)NCc2ccco2)n(-c2ccccc2)c1=O,/,/,3607
COc1ccc(CCNC(=O)CNS(=O)(=O)c2ccc(N(C)C)c([N+](=O)[O-])c2)cc1OC,5.3,0,3037
CCOc1cc(-c2nc3c(C)cccn3c2NCC2CCCO2)ccc1O (centres undefined),0.2,2,4718
COc1ccc2ccccc2c1CN1CCN(Cc2ccccc2)CC1,5.7,9,5884

Further compounds follow:
SMILES	RN4220 kill	Mtb hypoxia inh	Mtb hypoxia inh growth	PrP UTR inh	ugtP null kill	BJeLR lethal	Autofluor counter
CC(C)OC(=O)c1c2c(n3ccccc13)C(=O)c1ccccc1C2=O	-2.4	/	/	-15	11	-11	5595
CCN(CC)C(=O)c1sc(NC(=O)Cc2ccc(OC)cc2)c(C#N)c1C	-14	7	3	-12	-4	11	?
Cc1c(C(c2ccc(F)cc2)c2c(C)n(C)n(-c3ccccc3)c2=O)c(=O)n(-c2ccccc2)n1C	2.0	7	7	-19	10	-15	4003
O=C(Cn1cccc1)N1CCN(c2ccc(F)cc2)CC1	-13	7	8	-1	-1	-6	6617
O=C(NN=Cc1ccco1)c1csc2c1CCCC2	0.9	11	2	/	1	/	/
O=C(CN1C(=O)C2C3C=CC(C4CC34)C2C1=O)OCC(=O)c1ccccc1 (centres undefined)	3.4	4	7	-8	7	-1	2454
CC(C)c1ncc(C(O)c2ccccc2)n1C (centres undefined)	2.1	-5	3	-32	4	-7	4298
Cc1ccccc1C(=O)Oc1ccccc1N1C(=O)C2CC=CCC2C1=O (centres undefined)	4.1	19	-6	-8	-2	6	7919
CC1(C(=O)Nc2nc3ccc(S(C)(=O)=O)cc3s2)CC1(Cl)Cl (centres undefined)	2.5	13	7	-39	4	-4	5919
CCn1c(CNc2ccc(C(=O)O)cc2)nc2ccccc21	1.2	4	6	-21	11	0	11172
c1ccc(-c2nc(-c3ccccn3)nc(-c3ccccn3)n2)nc1	8.2	4	2	0	-12	-1	/
Cc1nn(-c2ccccc2)c2c1C1(C(=O)N(C(C)C)c3ccccc31)C(C#N)=C(N)O2 (centres undefined)	92*	4	7	-17	67	-1	2685
COc1ccccc1O	6.7	6	10	-11	1	-21	5400
COc1cccc(NC(=O)[C@H](CC(C)C)NC(=O)[C@@H]2Cc3ccccc3CN2)c1	5.9	6	-2	-19	17	-1	4225
COc1cc(OC)c(OC)cc1CN1CCN(Cc2ccco2)CC1	4.6	13	0	-56	6	-1	4814
Cc1cccc(C(=O)NNC2=CC(=O)CC(C)(C)C2)c1O	2.2	4	-4	-31	0	23	3769
CC1CCc2[nH]c3ccc(C(=O)N(C)CC(=O)Nc4cccc(F)c4)cc3c2C1 (centres undefined)	-4.0	11	-1	-5	0	8	5604
Cc1ccc2nc(N/C(=N/S(=O)(=O)c3ccc(F)cc3)c3ccccc3)sc2c1	1.1	9	0	2	9	4	4653
CC1(C(=O)NCCCN2CCOCC2)Oc2cccnc2NC1=O (centres undefined)	2.8	13	6	-9	-67	-7	3260
O=C(NC(=O)N1CCN(c2ccccc2F)CC1)c1ccccc1	4.4	10	3	-37	2	10	6657
O=C(N/N=C/c1ccc(O)c(O)c1)NC12CC3CC(CC(C3)C1)C2	/	/	/	-21	/	10	4042
CC(=O)N/C(=C\c1ccccc1)C(=O)OCC(=O)N(C)C1CCCCC1	2.9	6	-1	-16	6	5	6618
CCC1(c2ccccc2)NC(=O)N(CC(=O)Nc2ccc(N3CCCC3)cc2C)C1=O (centres undefined)	1.9	1	1	-10	4	-2	?
NC(=NO)c1ccc(NC(=O)c2cccs2)cc1	4.1	1	4	/	-8	/	/
Fc1ccccc1/C=N/Nc1cc(N2CCCCC2)ncn1	/	/	/	-40	/	-13	3516
CCCCC1SC(N)=NC1=O (centres undefined)	3.9	12	9	-8	7	/	2889
Cc1ccc(C)c(OCC(=O)Nc2nc3ccc([N+](=O)[O-])cc3s2)c1	-4.2	2	-3	-33	7	-7	10661
Cc1noc(C)c1C(=O)N1CCc2ccccc21	-1.1	3	-3	-32	1	0	10793
COc1ccccc1NC(=O)Cn1nnc(C(=O)NCc2cccs2)c1N	3.8	-5	-9	-15	5	33	5385
O=C(CC(=O)c1ccccc1)Nc1ccc([N+](=O)[O-])cc1	-0.6	11	7	-43	-18	/	3414
COc1nccnc1NS(=O)(=O)c1ccc(NC(=O)c2cccc(C)c2)cc1	0.6	-4	8	-17	-4	-7	3392
CCCCCCNS(=O)(=O)c1ccccc1Br	1.0	5	9	-18	-14	-2	3776
O=C(Cc1cccs1)N1CCN(S(=O)(=O)c2ccc(Br)cc2)CC1	4.3	0	6	-12	3	1	2233
CCCCC1(Cc2ccc(OC)c([N+](=O)[O-])c2)C(=O)N(c2ccccc2)N(c2ccccc2)C1=O	1.5	/	/	-18	14	-3	2423
O=C(O)CCCN1C(=O)/C(=C/c2cn(-c3ccccc3)nc2-c2cccs2)SC1=S	50	0	-3	-13	83*	7	2603
COc1ccccc1NC(=O)COC(=O)c1cn(C)c2ccccc12	7.2	0	10	-11	-9	/	?

Shown with two lines to a compound: 2 of the compounds above.
Each structure is followed by: RN4220 kill | Mtb hypoxia inh | Mtb hypoxia inh growth | PrP UTR inh | ugtP null kill | BJeLR lethal | Autofluor counter
CCCCC1SC(N)=NC1=O (centres undefined)
→ 3.9 | 12 | 9 | -8 | 7 | / | 2889
COc1ccccc1NC(=O)COC(=O)c1cn(C)c2ccccc12
→ 7.2 | 0 | 10 | -11 | -9 | / | ?

Continuation.
SMILES	RN4220 kill	Mtb hypoxia inh	Mtb hypoxia inh growth	PrP UTR inh	ugtP null kill	BJeLR lethal	Autofluor counter
CC(=NNC(=O)c1cccc(O)c1)c1cccc(NC(=O)c2ccc(F)cc2)c1	1.5	8	1	/	8	/	/
COc1cc2c(cc1OC)CN(C(=O)c1ccco1)CC2	1.6	0	-6	-12	0	4	3532
COc1ccc(NS(=O)(=O)c2ccc(N3CCCC3)c(NC(=S)Nc3ccc(SC(F)F)cc3)c2)cc1	-9.9	4	-7	-17	-33	4	10078
CCc1ccc(S(=O)(=O)c2ccc(-n3nc(C)cc3N)cc2)cc1	2.4	4	0	-38	-5	0	4015
COc1ccc(C(C)=O)cc1COc1ccc([N+](=O)[O-])c(C)c1	5.1	-8	16	-7	10	-3	2555
CCN1CCN(c2cc(C)c3cc(NC(=O)c4ccncc4)ccc3n2)CC1	5.3	3	10	1	6	0	4468
COC(=O)c1cc(S(=O)(=O)Nc2cc(OC)cc(OC)c2)c[nH]1	1.7	5	2	-17	3	-15	5353
C=CCn1c(SCC(C)=O)nnc1-c1cc(-c2ccccc2)sc1N	2.4	13	11	-17	-7	-8	15811
CCc1ccc2oc(=O)cc(CN3CCCCC3)c2c1	0.4	10	4	-9	10	10	3141
O=C(CSc1nnc(CN2CCOCC2)n1-c1ccc(Cl)cc1)N1CCc2ccccc21	4.4	/	/	-8	4	4	2092
CCS(=O)(=O)N1Cc2ccccc2CC1C(=O)Nc1ccc(F)c(F)c1 (centres undefined)	5.6	-1	6	-37	-4	-5	5739
O=C(NC1CCCC1)C(c1cccs1)N(CC1CCCO1)C(=O)Cc1cccs1 (centres undefined)	-4.5	/	/	-2	9	-2	4683
COc1ccc(CNC(=O)COC(=O)c2ccc(Br)cc2)cc1	8.6	9	6	1	3	-20	3367
COC(=O)c1cc2occc2n1CC(=O)Nc1cc(OC)cc(OC)c1	0.7	-1	7	-8	-5	-6	8763
CCCN(CC(=O)Nc1ccc(Cl)cc1Cl)C(=O)/C=C/c1ccco1	/	/	/	-23	/	1	3856
CCOc1cccc(=O)c2c(C)oc(C)c12	7.2	1	-2	-3	22	-3	8060
O=C(CCN1C(=O)c2ccccc2C1=O)Nc1cccc(S(=O)(=O)N2CCCCC2)c1	-1.0	11	13	-67	70	-3	?
Cn1c(Cn2cnc3ccccc32)nc2ccccc21	-0.9	/	/	-6	0	0	4992
Cc1nc2ccc([N+](=O)[O-])cc2c(=O)n1Cc1ccccc1Br	3.7	3	2	-11	22	-4	4280
C[C@@H](NC(=O)CN1C(=O)c2ccccc2S1(=O)=O)c1ccccc1	5.4	4	-7	-7	6	-3	4554
O=C(/C=C/c1ccc(Cl)c(Cl)c1)NCCCn1ccnc1	3.1	5	-3	-17	10	-3	4299
S=C(NCCCc1ccccc1)NCc1ccccc1	-2.8	0	8	-12	1	/	6210
O=c1[nH]c(=O)n(CCC2=CCCCC2)c(O)c1/C=N/Nc1ccccc1	5.6	6	5	-1	3	5	1983
O=C(CSc1nc2ccc(NC(=O)C3CCCCC3)cc2s1)NCC1CCCO1 (centres undefined)	0.5	23	2	-26	-5	13	2132

Record cards, as listed above. Values in the order: RN4220 kill	Mtb hypoxia inh	Mtb hypoxia inh growth	PrP UTR inh	ugtP null kill	BJeLR lethal	Autofluor counter
Shown for O=C(/C=C/c1ccc(Cl)c(Cl)c1)NCCCn1ccnc1 : 3.1	5	-3	-17	10	-3	4299
Shown for O=c1[nH]c(=O)n(CCC2=CCCCC2)c(O)c1/C=N/Nc1ccccc1 : 5.6	6	5	-1	3	5	1983
Shown for Cc1nc2ccc([N+](=O)[O-])cc2c(=O)n1Cc1ccccc1Br : 3.7	3	2	-11	22	-4	4280
Shown for C[C@@H](NC(=O)CN1C(=O)c2ccccc2S1(=O)=O)c1ccccc1 : 5.4	4	-7	-7	6	-3	4554

Next part:
SMILES	RN4220 kill	Mtb hypoxia inh	Mtb hypoxia inh growth	PrP UTR inh	ugtP null kill	BJeLR lethal	Autofluor counter
Cc1ccc(N=Cc2c(O)c3ccccc3oc2=O)cc1F	4.1	-1	11	-18	7	3	3024
Cc1ccc2nc(Cl)nc(-c3ccccc3)c2c1	1.5	10	1	-2	4	2	4478
O=C(O)CC1SC(=NN=Cc2ccc([N+](=O)[O-])cc2)N(c2ccc(O)cc2)C1=O (centres undefined)	-1.5	-5	15	/	-7	/	/
COc1cccc(NC(=O)N2C3CCCC2CC(NC(=O)C(C)(C)C)C3)c1 (centres undefined)	1.1	-1	0	-12	4	-7	3591

Screening data as filed in PubChem.
